UUG fidelity: modulators of start codon recognition fidelity in yeast; 0.13% of 350,000 active; S. cerevisiae UUG-firefly luciferase reporter, luminescence/redox ratio; activity score, % at 18.7 µM;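 active means replicate mean at a twofold rise or more, about +100% in these data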;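 further: firefly luciferase made from a UUG start codon reports start codon fidelity; reporter light over untreated wells divided by growth signal over untreated wells; some hits fall short of that in this replicate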
PABP polyA inh: PABP-poly(A) binding inhibition | P11940 | PABP-poly(A) RNA binding, fluorescence polarization | inhibition, % at 35 µM | 1% of 290,000 active | AID 2014;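 active means 50% or more with normal probe brightness, or confirmed in later tests; inconclusive means above 50% with abnormal brightness, or retests that disagree; inactive means below 50% or failed in later tests; about a fifth of its hits are not listed in these tables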;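 further: calls also rest on retests at 20 µM and on dose response follow-up; controls were probe without protein and protein plus probe with vehicle; some compounds called inactive have numbers as strong as hits; many hits fall short of the cut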
Target sequence (P11940 whole entry, looked up): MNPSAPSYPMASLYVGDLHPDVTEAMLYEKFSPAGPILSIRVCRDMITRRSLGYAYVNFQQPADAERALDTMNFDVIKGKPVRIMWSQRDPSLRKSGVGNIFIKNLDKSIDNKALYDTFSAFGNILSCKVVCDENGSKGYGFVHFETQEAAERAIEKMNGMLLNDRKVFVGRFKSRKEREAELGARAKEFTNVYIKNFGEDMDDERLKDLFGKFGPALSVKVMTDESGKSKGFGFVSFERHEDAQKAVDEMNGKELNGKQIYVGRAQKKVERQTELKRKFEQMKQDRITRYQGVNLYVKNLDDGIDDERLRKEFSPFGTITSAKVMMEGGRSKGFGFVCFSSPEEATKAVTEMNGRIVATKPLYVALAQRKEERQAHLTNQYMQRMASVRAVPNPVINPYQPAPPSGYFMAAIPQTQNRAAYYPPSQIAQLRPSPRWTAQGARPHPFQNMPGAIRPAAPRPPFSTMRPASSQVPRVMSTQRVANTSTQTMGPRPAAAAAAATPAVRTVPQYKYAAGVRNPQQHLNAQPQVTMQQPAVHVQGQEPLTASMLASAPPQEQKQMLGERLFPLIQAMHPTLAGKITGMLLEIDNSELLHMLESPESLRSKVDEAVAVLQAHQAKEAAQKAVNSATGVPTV
Rce1 inhib: yeast Ras-converting enzyme inhibition | Q03530 | yeast membranes, quenched prenylated peptide cleavage fluorescence | calls only | 0.27% of 290,000 active | AID 2563;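 active means fall in fluorescence gain of 50% or more versus controls, with final raw signal at or below 3038400; inconclusive means same 50% fall but final raw signal above 3038400; inactive means fall in fluorescence gain under 50%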;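 further: plate controls were neutral control wells for no effect and wells lacking membranes for full effect; tested at 10 µM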
Target sequence (Q03530 whole entry, looked up): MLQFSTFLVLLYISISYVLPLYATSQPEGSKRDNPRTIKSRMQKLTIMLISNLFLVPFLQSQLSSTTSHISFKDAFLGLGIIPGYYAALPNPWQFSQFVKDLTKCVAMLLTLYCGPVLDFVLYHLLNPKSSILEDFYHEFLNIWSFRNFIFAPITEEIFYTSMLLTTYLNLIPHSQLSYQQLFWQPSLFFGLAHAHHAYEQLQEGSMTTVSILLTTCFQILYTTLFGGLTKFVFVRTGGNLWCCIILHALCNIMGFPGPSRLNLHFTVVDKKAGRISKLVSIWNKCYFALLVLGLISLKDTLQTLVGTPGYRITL
eIF4H FP inh: inhibitors of RNA binding by human eIF4H. eIF4H fluorescence polarization binding assay. inhibition, % at 35 µM. 0.94% of 290,000 active. AID 2012;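 active means 50% or more with normal probe brightness, or confirmed in later tests; inconclusive means above 50% with abnormal brightness, or retests that disagree; inactive means below 50% or failed in later tests; about a fifth of its hits are not listed in these tables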;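 further: calls also rest on retests at 20 µM and on dose response follow-up; 0% = protein and probe with vehicle and 100% = probe without protein; strong numbers were not always called active; many hits fall short of the cut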
MT1-MMP act inh: blocks activation of human MT1-MMP; HT1080 RFP-PRO-GFP cells, GFP/RFP ratio fluorescence, overnight; percent of plate control window, DMSO zero; P50281; GFP/RFP ratio change, % at 20 µM; 0.061% of 360,000 active;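 active means GFP/RFP ratio change of at least 30% with cell ATP level not reduced by more than half and red fluorescence within 50% of control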; further: strong numbers were not always called active
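Assay system: HT1080 cells carrying an RFP-PRO-GFP reporter | Dosing: Single dose of 20 µM compound, 1% DMSO final | Incubation: Cells overnight before dosing, compound overnight, 37 °C, 5% CO2 | Evaluation: GFP/RFP fluorescence ratio | Control set: DMSO and RFP-L50D-GFP cell wells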
HIV Env fusion: HIV envelope-mediated fusion inhibition; inhibition, % at 12.3 µM; HeLa-JRFL Env/CEM21 cell fusion, luciferase; 1.1% of 360,000 active;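 active means mean replicate inhibition score of at least 50 and every replicate individually at or above 50; inconclusive means only one of the two criteria met; inactive means mean below 50 and not all replicates reaching 50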;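 further: 0% = plate neutral controls and 100% = maraviroc near 300 nM; one replicate is shown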
CSC inhib: blocks cancer stem cells | inhibition, % at 7.5 µM | 1.1% of 300,000 active | cancer stem cell-like cells viability, luminescence;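 active means mean at 75% or more and at least half the replicates too; inconclusive means mean and replicates disagree; tested in HMLE shEcad cells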;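 further: 0% = median of negative and 100% = median of positive control wells; the first replicate is given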
eIF4H FP inh retest: recorded beside eIF4H FP inh, whose call it bears; inhibition, %; compound at 20 µM; confirmation average;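 mean of two retest wells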
PABP polyA inh retest: second read-out of PABP polyA inh, no call of its own (marks repeat the call); inhibition, %; compound at 20 µM; confirmation repeats;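 mean of two retest wells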
MT1-MMP act inh RFP: second read-out of MT1-MMP act inh, no call of its own (marks repeat the call); RFP signal change, %; measured here: RFP expression control read;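 0 = vehicle wells; hits needed this value within 50% of zero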
An asterisk follows results filed as active; i = inactive; u = inconclusive; x = not tested or not shown; & = joins results of further samples; [ ] = remark or other dose.

SMILES	UUG fidelity	PABP polyA inh	Rce1 inhib	eIF4H FP inh	MT1-MMP act inh	MT1-MMP act inh RFP	HIV Env fusion	CSC inhib	others
CCCc1nnc(NC(=O)NCCN2C(=O)C3C4C=CC(C4)C3C2=O)s1 (stereo not drawn)	0	-15	i	-5	0	2	4	-15
Nc1cccc(C(=O)Nc2ccc3nc(-c4cccnc4)[nH]c3c2)c1	x	6	i	1	3	4	9	-7
Cc1n[nH]c(=O)c2c(NC(=O)COC(=O)Cc3ccc(Cl)cc3Cl)oc(C)c12	3	x	x	x	1	5	-18	-2
Cc1nn(C)c(C)c1NS(=O)(=O)c1ccc(Cl)cc1	-25	x	i	x	4	-3	x	-5
CC(Sc1nnc2c(n1)[nH]c1ccccc12)C(=O)NC1CCCCC1 (stereo not drawn)	-17	13	i	2	13	-28	22	x
COc1cccc(NC=C2C(=O)OC3(CCCCC3)OC2=O)c1	-15	-1	i	7	11	2	-37	3
Cc1nn(C)cc1CN(C)C(=O)c1nn2c(c1Br)NC(c1cccs1)CC2C(F)(F)F (stereo not drawn)	x	6	i	2	-3	-9	-7	-5
CCCCOc1ccccc1-c1cc(C(=O)O)[nH]n1	-8	5	i	4	-2	1	x	-10
CN1CCN(C(=S)Nc2cc(S(=O)(=O)N3CCOCC3)ccc2Cl)CC1	-17	4	i	4	0	-3	-3	-7
CCOC(=O)N1CCC2(CC1)C(C#N)=C(N)Oc1n[nH]c(C)c12	-11	-7	i	-6	2	4	x	-6
COC(=O)C(Cc1c[nH]c2ccccc12)NC(=O)c1ccccc1Br (stereo not drawn)	-18	-5	i	0	-2	2	1	-10
CCCCN(C=O)c1c(CC)nc2ccc(C(=O)NCCc3c[nH]c4ccccc34)cn12	-14	x	x	x	1	0	6	x
CC1CCN(CCOCCOc2ccc(Br)cc2Cl)CC1	-15	-5	i	0	3	0	-4	x
O=C1NCCc2c1[nH]c1ccccc21	x	-6&2	i	2&-17	3	0	-207	x
O=S(=O)(c1ccccc1)c1nnn2c1nc(NC1CCN(Cc3ccccc3)CC1)c1cc(Cl)ccc12	-3	-48	i	-22	1	-3	3	0
O=C(c1ccco1)N1CCN(C(=O)c2cccs2)CC1	-11	4	i	-4	-4	3	x	-2
Cc1ccc(-n2nnnc2SCC(=O)Nc2ccc3c(c2)OCCO3)cc1C	1	2	i	-9	6	-5	x	-9
O=C(Nc1ccncc1)Nc1ccncc1	x	-12	i	-5	-4	-2	11	-6
C=CCOc1cccc(C2/C(=C(\O)c3ccc4c(c3)OCCO4)C(=O)C(=O)N2CCN2CCOCC2)c1 (stereo not drawn)	-15	7	i	-9	0	4	-9	-18
CC1CCCC(C)N1C(=O)C1CC(c2ccc(F)cc2)=NO1 (stereo not drawn)	-14	2	i	7	3	4	1	-7
Cc1ccc(NC(=O)CN(C)C(=O)C2COc3ccccc3O2)cc1 (stereo not drawn)	x	-7	i	0	3	4	8	-1
COc1cccc(CNS(=O)(=O)c2ccc(N3CCCC3=O)cc2)c1	-24	6	i	-1	6	-2	-1	27
Oc1ccc(-c2cccc(-c3ccc(O)cc3)n2)cc1	x	-6	i	-7	0	2	-169	28
COc1ccc(OC)c(S(=O)(=O)Nc2cc(C(=O)O)ccc2N2CC3CC(C2)c2cccc(=O)n2C3)c1 (stereo not drawn)	-7	25	i	-1	1	7	-19	-11
CC(C)N(Cc1cc2ccccc2[nH]c1=O)C(=O)c1ccco1	x	6	i	17	1	-2	-5	-17
CC(=O)c1ccc(NS(=O)(=O)Cc2ccccc2)cc1	x	8	i	2	-1	1	x	1
Nc1nnc(COc2ccccc2)s1	-4	1	i	2	0	6	x	-10
c1coc(CN=C2NC(=NCc3ccco3)c3ccccc32)c1	-1	54	i	26	-7	0	x	5	eIF4H FP inh retest=26;PABP polyA inh retest=24
CNC(=S)N1N=C(c2cccs2)CC1c1ccc(F)cc1 (stereo not drawn)	-11	5	i	38	-6	-2	-3	21
Cn1nnnc1SCc1nc2scc(-c3ccc(Cl)cc3)c2c(=O)[nH]1	x	51*	i	59*	-37	-24	18	x
COc1ccccc1OCCNc1cc(N2CCCCC2)ccc1[N+](=O)[O-]	-16	11	i	-3	0	-17	x	20
O=C1OCCN1c1c(-c2ccccc2)c(-c2cccs2)nc2c(-c3ccccc3)cccc12	-23	-14	i	-7	5	0	x	-2
COc1ccc2c(c1)Cc1sc(NC(=O)c3ccco3)nc1-2	-4	3	x	14	1	0	x	1
CC(C)Cc1nnc(NC(=O)c2cc(S(=O)(=O)N(C)C)ccc2N2CCCC2)s1	-15	-15	i	-1	1	5	x	x
Cc1ccc(C(C)C)c(OCC(=O)Nc2ccc(Cl)cn2)c1	-2	-4	i	-3	-18	-10	x	-6
Cc1nc(CN(C)C(=O)c2ccccc2OC2CCN(S(C)(=O)=O)CC2)cs1	-14	-15	i	4	0	3	3	1
CSc1ccc(C2C3(C#N)C(N)=NC4(OCCO4)C23C#N)cc1 (stereo not drawn)	-26	5	i	7	0	0	x	-3
COCCNC(=O)c1cccc(NC(=O)C2=C(C)OCCS2)c1	2	12	i	-4	-2	-1	3	-3
COC(=O)c1ccc(NC(=O)CCC(=O)c2ccc(F)cc2)cc1	-13	8	i	-12	-1	0	-17	-6
Nc1ncnc(Nc2ccc(F)c(Cl)c2)n1	-15	-1	i	6	4	0	-11	-18
O=C(Nc1ccccc1)c1cc(S(=O)(=O)N2CCCCC2)ccc1N1CCOCC1	5	x	x	x	3	2	-4	x
O=C(Cc1nc2ccccc2[nH]1)c1ccc(Cl)cc1	-21	-7	x	5	-3	-1	-38	22
COc1ccc(-c2cnnc(N/N=C/c3ccc(O)c(O)c3)n2)cc1	x	-5	i	-6	0	-8	-11	57
CCOC(=O)Cc1ccc(Nc2nc(NC)nc3ccsc23)cc1	-9	x	x	x	12	-1	29	x
Cc1cc(Br)cn2c(Cc3cccc(F)c3)c(-c3cccc(Br)c3)nc12	-14	x	x	x	2	2	-12	x
CC(=O)N(C)N1c2ccccc2CCc2ccccc21	x	-5	i	-13	5	-6	-2	-11
CCOc1cc(C(=O)N2CCOCC2)ccc1OCc1ccccc1	-4	-1	i	1	1	-5	x	2
c1ccc2cc(CN3CCOCC3)ccc2c1	2	0	i	-9	3	2	x	x
CC(=O)Nc1ccc(S(=O)(=O)N(Cc2ccccc2)c2ccccc2F)cc1	x	5	i	-9	-2	-5	-1	2
COc1ccc2c(c1)C(c1ccc([N+](=O)[O-])cc1)=NNC(c1ccco1)=N2	-16	0	i	0	2	-1	x	-17

The list continues:
SMILES	UUG fidelity	PABP polyA inh	Rce1 inhib	eIF4H FP inh	MT1-MMP act inh	MT1-MMP act inh RFP	HIV Env fusion	CSC inhib	others
C[C@@H]1CN([C@@H](C)CO)C(=O)CCCn2nncc2CO[C@H]1CN(C)Cc1ccc(-c2ccccc2)cc1	-6&-3	x	x	x	-2	-1	2	x
O=C(COC(=O)c1ccccc1NC(=O)c1ccccc1)c1ccc([N+](=O)[O-])cc1	-17	-3	i	-10	3	1	x	-18
Cc1ccc(-c2nc(N)sc2CC(=O)OCC(=O)NCCC(C)C)cc1	x	55	i	119*	-12	-9	x	3	eIF4H FP inh retest=52*;PABP polyA inh retest=44
Cn1c(SCc2ccc(Br)cc2)nnc1-c1ccncc1	-20	1	i	-11	4	0	x	-11
O=C(OCc1ccccc1)c1cccc(-c2nnn(Cc3ccccc3)n2)c1	-4	9	i	-6	-10	-8	-50	29
O=C(c1cc2ccccn2n1)N1CCN(c2ccccn2)CC1	-12	2	i	2	-5	-2	10	0
CO[C@@H]1CN(C)C(=O)c2ccc(NC(=O)C3CCCC3)cc2OC[C@@H](C)N(Cc2ccc(F)cc2)C[C@H]1C	26	x	x	x	-5	-6	-11	x
CNC(=O)c1cccn1-c1ccsc1C(=O)OC	-17	-4	i	9	3	10	x	10
COc1ccc(C(=O)NCC(=O)N/N=C/C(C)=C/c2ccco2)cc1OC	37	3	i	34	-3	2	11	x
NC(=O)C1(N2CCCCC2)CCN(C(=O)c2cc(COc3c(F)cccc3F)on2)CC1	8	x	x	x	0	-2	1	x
COc1ccccc1NC(=O)COc1ccc(Br)cc1CO	-8	-3	i	-1	0	-8	-171	-7
CCCCCCN1C[C@@H](n2cc(C3CC3)nn2)[C@H](O)C[C@@H]1c1ccccc1	-5	x	x	x	1	3	2	x
CCN1CCCC1CNC(=O)CS(=O)(=O)Cc1nc(-c2ccccc2C)oc1C (stereo not drawn)	3	-6	i	-1	-5	3	11	0
CCn1nc(C)c(CN2CCC(C(=O)Nc3cccc(-c4cccc(Cl)c4)c3)CC2)c1C	-18	-8	i	1	-1	-2	1	64
Cc1cnc(C(=O)NC2CC(C)(C)Cc3c2cnn3-c2ccccc2)cn1 (stereo not drawn)	8	-7	i	-16	2	0	15	3
C[C@H](NC(=O)C[C@@H]1C=C[C@@H](NC(=O)CN2CCOCC2)[C@@H](CO)O1)c1ccccc1	-3	x	x	x	-4	6	-4[16.7 µM]	x
CCOCCCn1c(=O)c(NC(=O)c2ccc(OCC)cc2)c2n(c1=S)CCCCC2	15	0	i	-7	1	-3	-71	3
CCCCOc1ccc(C(=O)NCC(=O)NCc2ccccn2)cc1	-18	x	i	x	0	0	-11	-1
CC(OC(=O)CCSc1ccccc1)C(=O)Nc1ccc(S(N)(=O)=O)cc1 (stereo not drawn)	12	x	i	x	3	8	x	7
CCOC(=O)c1c(C)[nH]c(C)c1S(=O)(=O)N(C)CC(=O)Nc1cc(C)ccc1OC	-6	-4	i	1	0	1	-3	-4
Cc1ccc(S(=O)(=O)N2CCCCC2C(=O)Nc2ccc(N(C)C)cc2)cc1 (stereo not drawn)	16	x	x	x	5	4	25	-10
CC(C)N(C(=O)CSc1nc2ccccc2n1Cc1ccccc1)C(C)C	x	-18	x	0	-4	-6	33	0
COc1ccccc1CN(C)C(=O)c1cccc(S(=O)(=O)N2CCN(Cc3ccccc3)CC2)c1	-17	x	i	x	3	-3	9	x
Cc1ccccc1-n1c(=O)/c(=C\c2ccco2)s/c1=C(/C#N)C(=O)Nc1ccccc1	21	37	i	52	27	46	u	6	eIF4H FP inh retest=47;PABP polyA inh retest=33
COC(=O)[C@@]12CCCCN1[C@H](c1ccc(-c3ccc(Cl)c(Cl)c3)c(OC)c1)[C@@H]1C(=O)N(C)C(=O)[C@@H]12	-8	x	x	x	-3	-3	28	x
CSc1ccccc1C(=O)NC1CCCN(c2ccc(C(F)(F)F)cn2)C1 (stereo not drawn)	-13	6	i	3	2	0	19	6
O=C(COC(=O)C1CCN(S(=O)(=O)c2ccccc2)CC1)NCCc1ccccc1	1	x	x	x	6	2	4	-5
CC1CCCN(S(=O)(=O)c2ccc3c(c2)c(=O)nc2ccc(Cl)cn23)C1 (stereo not drawn)	-19	-4	i	-1	-3	-4	0	4
O=c1c2cc(Br)ccc2nc(-c2cccc(C(F)(F)F)c2)n1O	10	-2	i	6	-14	-13	x	14
CCOC(=O)c1c(NC(=O)CSC(=S)N(C)C)sc(C)c1C	x	3	i	-2	0	3	-9	-4

Bioassay records: PubChem BioAssay, several laboratories

An excerpt; count on the stated rates, not on these rows.
